Screens as filed in PubChem BioAssay.
Shh pathway inh: Sonic Hedgehog pathway inhibition. Shh-LIGHT2 Gli-luciferase reporter, 30 h. inhibition, % (no concentration beside the values). 2.1% of 22,000 active. AID 2313;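 active means replicate mean of 65% or more; inconclusive means mean lower but half the replicates past it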;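 further: pathway switched on by Shh-conditioned medium diluted 1 in 25 in low serum; 100 nL library stock added to about 40 µL; 0% = median of neutral wells and 100% = positive control level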
PD-1 reversal: reversal of PD-1 mediated T-cell inhibition | 29,000 tested, under 10 active | primary human CD4 T cells, PD-L1 beads, CellTiter-Glo 96 h | activation, % (concentration not given with the values) | AID 2316;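 active means replicate mean of 50% or more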;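 further: 0% = median vehicle wells and 100% = positive control; 100 nL library stock added to about 50 µL; numbers are from one replicate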
MITF inhib: inhibitors of MITF; TRPM1 promoter luciferase, luminescence, 24 h; inhibition, % (test concentration not listed); 0.28% of 37,000 active;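 active means most replicates at 85% or more, or half of them and the mean; inconclusive means half reach 85% but not the mean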;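 further: human melanocyte line stably carrying TRPM1 promoter luciferase reporter; 0% = vehicle wells and 100% = a positive control; the first replicate is given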
YB-1 expr inh: YB-1 expression inhibition | delta delta Cp (YB-1 minus CDIP) (test concentration not listed) | 0.37% of 30,000 active | AID 434959 | U2OS, qRT-PCR YB-1 vs CDIP delta delta Cp, 16 h; active compounds read high; zero = DMSO, each unit about twofold;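 active means delta delta Cp rounded down to an integer at or above 3, about 3 SD of DMSO wells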;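 further: higher means less YB-1 transcript or more CDIP transcript relative to DMSO; stock transfer was 100 nL into about 100 µL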
An asterisk follows results filed as active; ? = inconclusive; · = not tested or not shown.

SMILES	Shh pathway inh	PD-1 reversal	MITF inhib	YB-1 expr inh
C[C@@H]1CN([C@H](C)CO)C(=O)c2cccc(NC(=O)c3ccc(-c4nccs4)cc3)c2O[C@@H]1CN(C)CC1CC1	1	0.8	0	2.4
C[C@@H]1CN([C@@H](C)CO)C(=O)c2cccc(NC(=O)C3CC3)c2O[C@@H]1CN(C)Cc1ccc(Cl)c(Cl)c1	6	·	2	-0.18
C=C1CCC2[C@](C)(CCC[C@]2(C)C(=O)O)[C@H]1CC/C(C)=C/C(=O)O (stereo partly specified)	-8	0.7	-5	0.55
Cc1noc(C)c1S(=O)(=O)Nc1ccc2c(c1)C(=O)N([C@H](C)CO)C[C@H](C)[C@H](CN(C)S(=O)(=O)c1ccc(Cl)cc1)OCCCC[C@@H](C)O2	17	-6.7	29	0.25
Cc1noc(C)c1S(=O)(=O)Nc1ccc2c(c1)C(=O)N([C@H](C)CO)C[C@@H](C)[C@H](CN(C)Cc1ccc(C(F)(F)F)cc1)O2	·	2.3	-10	-0.56
Cc1ccc2c(c1O)C(=O)c1ccc(O[C@@H]3O[C@H](CO[C@@H]4OC[C@@H](O)[C@H](O)[C@H]4O)[C@@H](O)[C@H](O)[C@H]3O)cc1C2=O	-63	0.8	-8	-0.046
CCn1c(SCC(=O)Nc2ccc(OC)c(Cl)c2)nnc1-c1ccc(C)cc1	·	-1.7	29	·
CC(CN(C)C)CN1c2ccccc2CCc2ccccc21 (stereo unspecified)	38	·	10	-0.098

Remaining list, next part:
SMILES	Shh pathway inh	PD-1 reversal	MITF inhib	YB-1 expr inh
COc1ccc(S(=O)(=O)Nc2ccc3c(c2)C(=O)N([C@H](C)CO)C[C@H](C)[C@H](CN(C)CC2CCCCC2)OCCCC[C@@H](C)O3)cc1	32	-3.7	4	0.3
Cc1noc(C)c1NC(=O)N(C)C[C@@H]1Oc2c(NC(=O)Nc3ccc(C(F)(F)F)cc3)cccc2C(=O)N([C@H](C)CO)C[C@H]1C	-6	-1.6	-2	0.022
Cc1cc(=O)[nH]c(Nc2nc(C)c3cccc(C)c3n2)n1	·	-8.1	31	·
Cc1noc(C)c1NC(=O)N(C)C[C@H]1Oc2c(NC(=O)Nc3ccccc3)cccc2C(=O)N([C@H](C)CO)C[C@@H]1C	18	1.1	3	0.2
COc1ccc(S(=O)(=O)N(C)C[C@H]2Oc3ccc(NC(=O)Nc4cccc5ccccc45)cc3CC(=O)N([C@@H](C)CO)C[C@H]2C)cc1	-23	-1.4	14	-17
C[C@@H]1CN([C@@H](C)CO)C(=O)c2cccc(NS(C)(=O)=O)c2O[C@H]1CN(C)C(=O)Nc1ccccc1	-23	1.8	-10	0.031
C[C@@H]1CN([C@H](C)CO)C(=O)Cc2cc(NC(=O)CCCN(C)C)ccc2O[C@H]1CN(C)Cc1ccc(Oc2ccccc2)cc1	·	-1.1	-9	-0.099
COc1ccc(S(=O)(=O)Nc2cccc3c2O[C@H](CN(C)C(=O)NC(C)C)[C@@H](C)CN([C@@H](C)CO)C3=O)cc1	5	·	-9	-0.42

(continued)
SMILES	Shh pathway inh	PD-1 reversal	MITF inhib	YB-1 expr inh
Cc1noc(C)c1NC(=O)Nc1ccc2c(c1)C(=O)N([C@H](C)CO)C[C@H](C)[C@H](CN(C)Cc1ccc(C(=O)Nc3ccccc3N)cc1)OCCCC[C@@H](C)O2	·	-0.3	-5	0.86
O=C(O)CSC12CC3CC(CC(C3)C1)C2	·	0.2	-1	-0.83
C[C@H]1CN([C@@H](C)CO)C(=O)c2cccc(NS(=O)(=O)c3ccc(F)cc3)c2O[C@@H]1CN(C)C(=O)Nc1ccccc1	0	0.7	-10	0.062
Cc1ccc(S(=O)(=O)N(C)C[C@H]2Oc3c(NC(=O)c4cnccn4)cccc3C(=O)N([C@H](C)CO)C[C@H]2C)cc1	33	·	-25	-0.21
Cc1c(N(C)C)c(=O)n(-c2ccccc2)n1C	54	·	8	-0.13
CC(Oc1cccc(NC(=O)c2ccc(Br)cc2)c1)C(=O)c1ccccc1 (stereo unspecified)	·	0.7	24	·
Cc1noc(C)c1NC(=O)Nc1ccc2c(c1)CC(=O)N([C@H](C)CO)C[C@@H](C)[C@H](CN(C)S(=O)(=O)c1ccc(F)cc1)O2	-24	1.6	-7	-0.19
C[C@@H]1CN([C@H](C)CO)C(=O)Cc2cc(NC(=O)Nc3ccc4c(c3)OCO4)ccc2O[C@@H]1CN(C)S(C)(=O)=O	24	0.3	10	-0.077

Given with each value named: four of the compounds above
Cc1ccc(S(=O)(=O)N(C)C[C@H]2Oc3c(NC(=O)c4cnccn4)cccc3C(=O)N([C@H](C)CO)C[C@H]2C)cc1
  Shh pathway inh: 33; PD-1 reversal: ·; MITF inhib: -25; YB-1 expr inh: -0.21

Cc1c(N(C)C)c(=O)n(-c2ccccc2)n1C
  Shh pathway inh: 54; PD-1 reversal: ·; MITF inhib: 8; YB-1 expr inh: -0.13

CC(Oc1cccc(NC(=O)c2ccc(Br)cc2)c1)C(=O)c1ccccc1 (stereo unspecified)
  Shh pathway inh: ·; PD-1 reversal: 0.7; MITF inhib: 24; YB-1 expr inh: ·

Cc1noc(C)c1NC(=O)Nc1ccc2c(c1)CC(=O)N([C@H](C)CO)C[C@@H](C)[C@H](CN(C)S(=O)(=O)c1ccc(F)cc1)O2
  Shh pathway inh: -24; PD-1 reversal: 1.6; MITF inhib: -7; YB-1 expr inh: -0.19

Going on with the list:
SMILES	Shh pathway inh	PD-1 reversal	MITF inhib	YB-1 expr inh
C[C@@H]1CN([C@@H](C)CO)C(=O)c2cccc(NS(=O)(=O)c3ccc(F)cc3)c2O[C@H]1CN(C)S(=O)(=O)c1ccc(F)cc1	-3	0.0	-11	0.19
O=C(NCc1ccco1)C1CC(c2cccc(Br)c2)=NO1 (stereo unspecified)	·	-0.7	33	·
C[C@@H]1CCCCO[C@@H](CN(C)Cc2ccc3c(c2)OCO3)[C@@H](C)CN([C@H](C)CO)C(=O)c2cc(NC(=O)NC3CCCCC3)ccc2O1	34	·	9	0.22
C[C@H](CO)N1C[C@H](C)[C@H](CN(C)Cc2ccc(C(=O)Nc3ccccc3N)cc2)Oc2ccc(NS(C)(=O)=O)cc2CC1=O	·	-1.0	15	-0.19
Cc1ccccc1Cn1cc(NC(=O)c2nc3ncccn3n2)cn1	·	1.1	-79	·
CCC(=O)Nc1nonc1-c1nc2ccccc2n1Cc1cc(OC)ccc1C	·	-4.5	40	·
COc1ccc(NC(=O)Nc2cccc3c2O[C@H](CN(C)Cc2ccc(Oc4ccccc4)cc2)[C@@H](C)CN([C@@H](C)CO)C3=O)cc1	16	-4.0	38	-0.012
Cc1noc(C)c1NC(=O)Nc1cccc2c1O[C@H](CN(C)Cc1ccc(Oc3ccccc3)cc1)[C@H](C)CN([C@H](C)CO)C2=O	4	1.0	-21	0.038

Further results follow:
SMILES	Shh pathway inh	PD-1 reversal	MITF inhib	YB-1 expr inh
CCOC(=O)c1c(NC(=O)Cn2ccc([N+](=O)[O-])n2)sc(C)c1C	·	0.4	-3	·
C[C@@H]1CN([C@H](C)CO)C(=O)c2cc(NC(=O)C3CC3)ccc2O[C@H]1CN(C)S(=O)(=O)c1ccccc1	·	-0.6	1	-0.01
C[C@H](CO)N1C[C@H](C)[C@H](CN(C)C(=O)NC2CCCCC2)Oc2c(NC(=O)C3CCCCC3)cccc2C1=O	-5	-1.2	6	0.42
COc1ccccc1C(=O)NCCCN1CCCC1=O	·	0.7	11	·
C[C@@H]1CN([C@@H](C)CO)C(=O)c2cc(N(C)C)ccc2O[C@@H]1CN(C)C(=O)Nc1ccc(C(F)(F)F)cc1	29	1.1	1	-0.22
C[C@H](CO)N1C[C@H](C)[C@H](CN(C)Cc2ccc(C(F)(F)F)cc2)Oc2ccc(NC(=O)Cc3cn(C)c4ccccc34)cc2C1=O	·	-2.9	35	-0.53
CC(C)Cn1c(SCC(=O)c2ccc(Cl)cc2)nc2ccccc2c1=O	54	-0.1	13	-0.44
Cc1ccc(NC(=O)Cn2c(-c3nonc3N)nc3ccccc32)cc1Cl	·	2.5	1	·

(further entries)
SMILES	Shh pathway inh	PD-1 reversal	MITF inhib	YB-1 expr inh
CC(C)[C@H](N)C(=O)OCCOCn1cnc2c(=O)[nH]c(N)nc21	-12	·	-17	0.29
Cc1ccc(SCCCCSc2nc(C)cc(=O)[nH]2)cc1	·	-1.0	17	·
C[C@H](CO)N1C[C@H](C)[C@H](CN(C)C(=O)Nc2cccc3ccccc23)Oc2ccc(NC(=O)Nc3ccc(F)cc3)cc2C1=O	-3	·	9	-0.21
CNC[C@@H]1OCCCC[C@@H](C)Oc2ccc(NC(=O)CCCN(C)C)cc2C(=O)N([C@H](C)CO)C[C@@H]1C	·	0.5	5	0.36
Cc1noc(C)c1S(=O)(=O)Nc1cccc2c1O[C@H](CN(C)CC1CCCCC1)[C@H](C)CN([C@@H](C)CO)C2=O	-2	0.9	1	-0.16
COc1ccc(-c2cnn(-c3ccccc3)c2N)cc1OC	1	0.7	-2	-0.17
N#C/C(=C\c1ccc(O)c(O)c1)C(=O)NCCCCc1ccccc1	0	2.9	1	-0.24
Cc1ccc(S(=O)(=O)N(C)C[C@@H]2Oc3ccc(NC(=O)Nc4cccc5ccccc45)cc3CC(=O)N([C@H](C)CO)C[C@@H]2C)cc1	15	·	41	0.044

Continuation.
SMILES	Shh pathway inh	PD-1 reversal	MITF inhib	YB-1 expr inh
COc1ccc(S(=O)(=O)Nc2ccc3c(c2)CC(=O)N([C@H](C)CO)C[C@@H](C)[C@H](CN(C)Cc2ccc(Oc4ccccc4)cc2)O3)cc1	14	-1.0	21	0.2
Cc1cccc(-n2ncc3ccccc3c2=O)c1	-61	-0.5	-39	0.19
C[C@H]1CN([C@@H](C)CO)C(=O)c2cccc(NS(=O)(=O)c3ccc(Cl)cc3)c2O[C@H]1CN(C)S(C)(=O)=O	-8	-0.4	-2	-0.015
Cc1noc(C)c1S(=O)(=O)N(C)C[C@H]1Oc2ccc(NC(=O)Nc3cccc4ccccc34)cc2CC(=O)N([C@H](C)CO)C[C@H]1C	-32	-0.8	8	0.22
CC(=O)Nc1ccc(S(=O)(=O)NC2=NCN(C)CN2)cc1	-13	0.6	-5	-0.42
C[C@@H]1CN([C@@H](C)CO)C(=O)c2cc(NC(=O)Cn3cnnn3)ccc2O[C@@H]1CN(C)C	·	0.8	-2	0.28
CNC[C@@H]1Oc2c(NS(C)(=O)=O)cccc2C(=O)N([C@H](C)CO)C[C@@H]1C	-23	0.7	-2	-0.075
COc1ccc(NC(=O)COc2cc(C)cc(C)c2C)c([N+](=O)[O-])c1	·	4.2	-23	·

(list continues)
SMILES	Shh pathway inh	PD-1 reversal	MITF inhib	YB-1 expr inh
Cc1ccc(NC(=O)CN(c2c(C)cccc2C)S(C)(=O)=O)cc1C	·	0.2	-10	·
C[C@@H]1CN([C@H](C)CO)C(=O)c2cccc(NC(=O)C3CCCCC3)c2O[C@H]1CN(C)C(=O)Nc1cccc2ccccc12	3	1.9	9	-0.24
COc1ccc(S(=O)(=O)N(C)C[C@@H]2Oc3ccc(NC(=O)NC(C)C)cc3C(=O)N([C@@H](C)CO)C[C@H]2C)cc1	-20	·	5	2.2
C[C@H](CO)N1C[C@H](C)[C@H](CN(C)Cc2ccc(C(F)(F)F)cc2)Oc2c(NC(=O)c3ccc(-c4nccs4)cc3)cccc2C1=O	-19	·	63	0.0057
CNC[C@H]1Oc2ccc(NS(=O)(=O)c3ccc(Cl)cc3)cc2C(=O)N([C@@H](C)CO)C[C@H]1C	19	-0.6	-4	0.23
CC(C)NC(=O)N(C)C[C@@H]1Oc2c(NC(=O)NC3CCCCC3)cccc2C(=O)N([C@H](C)CO)C[C@@H]1C	-4	-0.5	0	1.2
Cc1ccc(S(=O)(=O)Nc2ccc3c(c2)C(=O)N([C@@H](C)CO)C[C@@H](C)[C@H](CN(C)Cc2ccc(-c4ccccc4)cc2)O3)cc1	18	0.0	36	0.1
COc1ccc(S(=O)(=O)Nc2ccc3c(c2)CC(=O)N([C@@H](C)CO)C[C@H](C)[C@H](CN(C)Cc2ccc4c(c2)OCO4)O3)cc1	1	3.6	-4	0.14

(cont.)
SMILES	Shh pathway inh	PD-1 reversal	MITF inhib	YB-1 expr inh
C[C@H]1CN([C@@H](C)CO)C(=O)Cc2cc(NS(C)(=O)=O)ccc2O[C@H]1CN(C)C	-17	0.1	-25	-0.22
COc1c(O)cc2oc(-c3ccc(O)cc3)cc(=O)c2c1O	-24	1.6	2	0.42
COC(=O)C1=NNC(c2ccccc2)(c2ccccc2)C1	-6	0.6	8	-0.21
C[C@H](CO)N1C[C@H](C)[C@@H](CN(C)Cc2ccccc2)Oc2c(NS(=O)(=O)c3cccs3)cccc2C1=O	-21	0.4	4	-0.27
C=C1[C@@H]2CC[C@H]3[C@@]4(C)C(C[C@H](OC(=O)[C@]5(C)O[C@@H]5C)[C@]3(C2)[C@@H]1OC(C)=O)[C@](C)(C(=O)OC)CC[C@H]4OC(C)=O (stereo partly specified)	8	-1.2	-20	0.79
C[C@H]1CN([C@@H](C)CO)C(=O)Cc2cc(NC(=O)CCC(F)(F)F)ccc2O[C@@H]1CN(C)CC1CCCCC1	?	1.1	-3	-0.24
Cc1ccc(S(=O)(=O)Nc2cccc3c2O[C@@H](CN(C)Cc2ccc4c(c2)OCO4)[C@H](C)CN([C@H](C)CO)C3=O)cc1	-23	0.5	2	0.24

This is a subset. The share of hits here may be higher or lower than overall.
